Source: PubChem
SARS PLP yeast – blocks SARS-CoV papain-like protease in a yeast assay | S. cerevisiae expressing SARS-CoV PLpro, growth rescue; control for the full effect not named in the record | Potency, µM (series often up to 32.9 µM), without a hit: at the highest dose activity, positive = growth rescue | actives 0.19% (n = 330,000) | AID 485353; note: 0% is about no effect; nearly all actives have a fitted effect of over 55% in size; growth read by luminescence after 48 h
Cruzain inh noDet – inhibitors of Trypanosoma cruzi cruzain without detergent; P25779; purified cruzain, Z-FR-AMC fluorescence, no detergent; Potency, µM, for inactives: max response, negative = inhibition, hits mostly inhibitors; actives 2.3% (n = 200,000); active = well fitted curve in the direction sought with a large enough effect; inconclusive = small, poorly fitted or top-dose-only effect, or another doubt; inactive = no such curve, though single readings can be large; an effect the other way counts as inactive or inconclusive;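 note: plate controls were enzyme without inhibitor for no effect and buffer without enzyme for full effect; nearly all actives have a fitted effect of over 40% in size; top concentration of the series not given in the record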
Target sequence (P25779 123-467 limits assumed): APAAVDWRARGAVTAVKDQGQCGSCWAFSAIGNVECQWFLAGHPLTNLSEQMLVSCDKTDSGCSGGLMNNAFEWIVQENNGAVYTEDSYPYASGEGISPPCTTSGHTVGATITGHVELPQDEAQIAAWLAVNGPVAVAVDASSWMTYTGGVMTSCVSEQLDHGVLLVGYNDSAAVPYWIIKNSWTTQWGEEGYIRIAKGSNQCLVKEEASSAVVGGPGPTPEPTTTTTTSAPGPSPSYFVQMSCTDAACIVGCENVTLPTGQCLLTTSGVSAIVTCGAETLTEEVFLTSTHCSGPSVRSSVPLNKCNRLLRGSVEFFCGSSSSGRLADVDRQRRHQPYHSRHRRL
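Purified cruzain at 1.5 nM, pre-incubated 15 min with compound at room temperature in 100 mM sodium acetate pH 5.5, 5 mM DTT, 0.00005% Triton X-100. Reaction started with 2 uM Z-FR-AMC; AMC fluorescence increase over 60 s gives rate.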
Lassa entry inh – Lassa virus entry inhibition; actives 1.2% (n = 300,000); Lassa virus pseudotype entry inhibition, cell reporter; control for the full effect not named in the record; Potency, µM (doses to about 37.9 µM), for the others: top-dose activity change, negative = inhibition, hits mostly inhibitors; active means well fitted inhibition curve with a large enough effect; inconclusive means small, poorly fitted or top-dose-only effect, or effect the other way; inactive means flat fitted curve, though single readings scatter; tested in HEK293 cells; note: % is set by controls: 0 for no effect and ±100 for the full control effect; nearly all actives have a fitted effect of over 50% in size; luciferase read-out
RE007 growth inh – less growth of the S. pombe RE007 Vpr strain; Potency, µM (doses to about 92.2 µM), for the others: at the highest dose activity change, negative = less growth; AID 651644; S. pombe RE007 Vpr strain, BacTiter-Glo ATP luminescence, 24 h; control for the full effect not named in the record; actives 0.21% (n = 360,000); active = well fitted falling curve with a large enough effect; inconclusive = small, poorly fitted or top-dose-only effect; inactive = no such curve, though single readings can be large or run the other way;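 note: % is set by controls: 0 for no effect and ±100 for the full control effect; nearly all actives have a fitted effect of over 50% in size; the assay follows cell death caused by Vpr and the record does not say whether a fall means rescue or toxicity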
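Fission yeast strain RE007, carrying one chromosomally integrated HIV-1 vpr copy, was seeded at OD 0.01 in PMG+AL medium with 23 nL pinned compound. After 24 h at 30 °C and 99% humidity, viability was read by BacTiter-Glo luminescence.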
NS1 inh – inhibitors of influenza NS1 protein function; actives 0.4% (n = 270,000); AID 2326; Potency, µM (titrated, usually from 46.1 µM), without a hit: top-dose activity, positive = more growth; S. cerevisiae slowed by influenza A NS1, growth recovery by OD600; note: actives are rising curves; nearly all actives have a fitted effect of over 50% in size
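Growth recovery, yeast-based: influenza A NS1 expressed in S. cerevisiae causes slow growth, and suppressors are detected by OD600. The parent strain without NS1 is used as positive control.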
Cruzain Triton – blocks cruzain activity in presence of Triton detergent; P25779; purified cruzain, Z-FR-AMC fluorescence, 0.01% Triton; Potency, µM, for the others: max response, negative = inhibition, hits mostly inhibitors; actives 0.43% (n = 200,000); AID 1478; active = well fitted curve in the direction sought with a large enough effect; inconclusive = small, poorly fitted or top-dose-only effect, or another doubt; inactive = no such curve, though single readings can be large; an effect the other way counts as inactive or inconclusive;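 note: plate controls were neutral wells for no effect and buffer without enzyme for full effect; nearly all actives have a fitted effect of over 40% in size; top concentration of the series not given in the record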
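Sodium acetate buffer (100 mM, pH 5.5) containing 5 mM DTT and 0.01% Triton X-100 hosted 1.5 nM cruzain and test compound for 15 min at room temperature. Cleavage of 2 uM Z-FR-AMC was then tracked by fluorescence.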
2A StopGo – FMDV 2A StopGo reporter, luciferase signal. actives 1.2% (n = 410,000). human cells with a luciferase reporter of 2A StopGo recoding; control for the full effect not named in the record. Potency, µM (series often up to 57.9 µM), inactives show at the top dose signal change, negative = less light; active = well fitted falling curve with a large enough effect; inconclusive = small, poorly fitted or top-dose-only effect; inactive = no such curve, though single readings can be large or run the other way; tested in HEK293T cells; note: % is set by controls: 0 for no effect and ±100 for the full control effect; nearly all actives have a fitted effect of over 45% in size; luciferase light after 4 h
Marburg entry inh – blocks Marburg virus binding to or entry into cells | Marburg virus pseudotyped entry inhibition, cell reporter; control for the full effect not named in the record; about a third of the inactives were read at about 46 µM | Potency, µM (doses to about 37.8 µM), inactives show at the top dose activity change, negative = inhibition, actives largely listed as inhibitors | actives 1.8% (n = 300,000) | AID 540276; active = well fitted inhibition curve with a large enough effect; inconclusive = small, poorly fitted or top-dose-only effect, or effect the other way; inactive = flat fitted curve, though single readings scatter; tested in HEK293 cells; about a fifth of its hits are not listed in these tables; note: % is set by controls: 0 for no effect and ±100 for the full control effect; luciferase read-out
Starred values were filed as active, the others as inactive; u = inconclusive; x = no result given; & = joins results of further samples; [ ] = another dose, or the depositor's remark. Unless noted, calls come from the whole dose curve; as a rule, active means well fitted rising curve with a large enough effect; inconclusive means small, poorly fitted or top-dose-only effect; inactive means no such curve, though single readings can be large or run the other way. Potency is the fitted concentration of half-maximal effect.

molecule	SARS PLP yeast	Cruzain inh noDet	Lassa entry inh	Marburg entry inh	Cruzain Triton	RE007 growth inh	NS1 inh	2A StopGo
OCCN1C2=NCCCN2c2ccccc21	-1%	x	5%[46.1 µM]	u	x	3%	2%	-10%
COc1ccccc1S(=O)(=O)Cc1ccc(C(=O)N2CCOCC2)o1	14%	3%	x	x	0.2%	6%	3%	-5%
Cc1noc(NC(=O)c2cccc(Cl)c2Cl)c1C#N	-2%	x	-14%	3%	x	-17%	-7%	-5%
CC1CC(C)CN(S(=O)(=O)c2cccc3cccnc23)C1 (stereo not given)	-4%	-14%	x	x	-1.8%	-6%	-62%	-2%
CC(=O)Nc1nnc(SCc2cc(=O)c3cccc(C)c3[nH]2)s1	x	7%	3%[46.1 µM]	x	1.1%	x	x	u
COc1ccc(/C=C2/C(=O)ON=C2c2ccccc2)cc1OC	5%	2%	-5%	2%[46.1 µM]	-1.5%	-7%	29%	22µM*
COc1ccccc1NC(=S)NN=C(C)c1ccccn1	x	x	0.28µM*	u	x	1%	x	1%
O=C(CCc1ccccc1)NNC(=O)c1ccccc1F	1%	x	x	x	x	-3%	3%	24%
CCc1nc2ccccc2c(=O)n1NC(=O)c1c(O)c2cccc3c2n(c1=O)CCC3	x	1%	-8%	0%	-11%	24%	-49%	-23%
C[C@H](NC(=O)c1nc[nH]c1C(=O)NCc1ccc(CNC(=O)OC(C)(C)C)cc1)C(=O)OC(C)(C)C	-1%	x	x	x	x	-4%	0%	u
N#CC1=C(N)OC2=C(C(=O)CCC2)C1c1ccc2c(c1)OCO2 (stereo not given)	11%	x	x	x	x	5%	5%	6%
CC(C)(C)C1CCc2nc(NC(=O)Cc3ccccc3)sc2C1 (stereo not given)	x	19%	11%[46.1 µM]	u	-2.1%	x	x	38%[activator]
COc1ccc(N2CCN(c3nc4cc(C)ccc4cc3C=O)CC2)cc1	1%	x	-12%	-19%[46.1 µM]	x	-7%	-25%	-19%
O=S(=O)(c1cc(-c2nnc(-c3ccc(Br)cc3)o2)ccc1Br)N1CCCCCC1	18%	u	u	u	-0.6%	-4%	4%	u
Nc1ccc(-c2nc3cc([N+](=O)[O-])ccc3o2)cc1	1%	x	x	x	x	-16%	u	13%
Cn1c(=O)nc2n(Cc3ccccc3)c3ccccc3cc-2c1=O	2%	-9%	7%	u	u	2%	u	-19%
Cc1cc(Br)ccc1OCCN1CC(C)OC(C)C1 (stereo not given)	0%	x	0%	u	x	1%	-10%	u
O=C(NCC(=O)N(c1ccccc1F)C(C(=O)NC1CCCC1)c1cccnc1)c1ccco1 (stereo not given)	1%	x	12%[46.1 µM]	0%[46.1 µM]	x	10%	-6%	-5%
CCc1cccc(C)c1NC(=O)COC(=O)CNS(=O)(=O)/C=C/c1ccccc1	25%	-13%	8%	u	-11%	9%	-4%	-6%
CCOc1ccc2oc(-c3ccccc3)c(C(=O)O)c2c1	-12%	30%	20%	-13%	-8.0%	-27%	-53%	2%
COc1ccc(-c2cc(C(=O)NCCCn3ccnc3)no2)cc1OC	0%	9%	1%	u	-2.3%	10%	8%	-13%
O=C(COc1ccc2cc(-c3ccccc3)c(=O)oc2c1)NCC1CCC(C(=O)O)CC1 (stereo not given)	6%	x	x	x	x	8%	-7%	25%
N#CCCn1cnc2c1NC=NC2Cl (stereo not given)	x	-7%	u	u	-2.1%	x	x	x
NNC(=S)Nc1ccc(S(=O)(=O)N2CCOCC2)cc1	-1%	x	x	x	x	17%	4%	-13%
Cc1nn(C)c(C)c1S(=O)(=O)N1CCCC(C(=O)N2CCN(c3ccccc3)CC2)C1 (stereo not given)	1%	u	x	-1%	-2.9%	-7%	-2%	u
COc1ccc(C(C(=O)NC2CCCC2)N(C(=O)c2ccco2)c2cc3c(cc2C(C)=O)OCO3)cc1OC (stereo not given)	8%	x	-5%	7%[46.1 µM]	x	10%	-6%	1%
CCN(CC)CCN1C(=O)c2cccc3cc(N)cc(c23)C1=O	0%	-5%	-24%	10µM*	-1.3%	-12%	10%&-2%	u
O=C(NNS(=O)(=O)c1ccccc1)c1cnn(-c2ccccc2)c1-n1cccc1	1%	7%	-6%	-4%	-3.6%	-7%	11%	5%
CCC(=O)Nc1nnc(CSCc2ccc(F)cc2)s1	-1%	0%	12%	4%	-0.9%	42%	-9%	-14%
Cn1c(SCC(=O)N2CCCCCC2)nc2c([nH]c3ccccc32)c1=O	-10%	-30%	1%	-17%	1.0%	8%	-2%	-1%
COc1ccc(-c2nc3scc(CCNS(=O)(=O)c4ccc(C)cc4)n3n2)cc1	x	-2%	-6%[46.1 µM]	x	-5.9%	x	x	17%
O=c1[nH][nH]cc1C=Nc1ccc(Cl)cc1	1%	x	-23%	6%[46.1 µM]	x	4%	x	2%
Cc1ccc(S(=O)(=O)c2cc3cc(C(=O)Nc4ccc(C)cc4C)ccc3oc2=O)cc1	x	-2%	12%[46.1 µM]	-3%[46.1 µM]	2.0%	x	x	u
CN(CC(=O)Nc1ccccc1Br)C(=O)c1ccccc1OCc1ccccc1Cl	x	x	u	u	x	0%	x	-22%
Cc1ccc(-n2nc3c(c2NC(=O)C(C)C)CS(=O)(=O)C3)c(C)c1	-2%	x	8%[46.1 µM]	-12%[46.1 µM]	x	3%	7%	-7%
COc1cc(/C=C2/C(=O)NC(=O)N(c3ccc(C)cc3)C2=O)cc(OC)c1OC	2%	x	3%	0%[14.2 µM]	x	5%	4%	u
Cc1ccc(C(=O)NCCONC(=O)c2ccc(C)cc2)cc1	25%	x	16%[46.1 µM]	5%[46.1 µM]	x	-16%	-1%	0%
CN(C)CCCC1(O)c2ccccc2C=Cc2ccccc21	18%	6%	-25%	u	0.0%	-4%	9%	-1%
CCOc1cc2c3c(c1)C1(C(=O)N3C(C)(C)C=C2C)C(C#N)=C(N)Oc2cc(O)ccc21 (stereo not given)	-3%	u	u	0%	-6.3%	10%	-44%	-14%
CC(C)(C)NC(=O)c1ccncc1	-2%	-3%	9%	4%	4.0%	5%	7%	-2%
O=C(O)CCCCCNC(=O)OCC1c2ccccc2-c2ccccc21	0%	x	9%	9%	x	9%	2%	-8%
COc1cc(/C=N\NC(=O)CC#N)ccc1OC/C=C/c1ccccc1	3%	x	7%[46.1 µM]	-18%[46.1 µM]	x	-3%	15%	1%
O=c1c2cnn(-c3ccccc3)c2ncn1Cc1cccnc1	-3%	-9%	2%	22%	-0.3%	8%	0%	-14%
Cc1cccc(Cc2c(C)nc3c(C(=O)N4CCN(Cc5ccc6c(c5)OCO6)CC4)cnn3c2C)c1	-16%	1%	-13%	-4%	0.3%	-2%	-20%	u
CC(=O)N1CCN(S(=O)(=O)c2cccc(C(=O)Nc3ccccc3N3CCCCC3)c2)CC1	0%	x	4%	-10%	x	-17%	x	-13%
CC1Cc2ccccc2N1C(=O)NC1CC(=O)N(c2ccc3c(c2)OCCO3)C1 (stereo not given)	1%	x	-7%[46.1 µM]	u	x	10%	x	-13%
COc1ccccc1NC(=O)C1=C(C)Nc2nc(SCc3ccc(Cl)cc3)nn2C1c1ccccc1Cl (stereo not given)	x	-2%	-9%[46.1 µM]	-6%[46.1 µM]	-5.9%	x	x	-19%
CCc1ccccc1Nc1nn2c(=O)c3ccc(C(=O)NCc4cccs4)cc3nc2s1	1%	-4%	-29%[46.1 µM]	x	-2.1%	x	x	-2%
CCC(C)NCCOCCOc1cc(C)c(Cl)c(C)c1 (stereo not given)	-1%	x	u	u	x	-3%	1%	-22%
Clc1ccccc1/C=N/N1CCN(Cc2ccccc2)CC1	4%	x	x	x	x	-12%	11%	38%[activator]
O=C(CSC1=NS(=O)(=O)c2cc(F)ccc2N1)NCc1ccccc1	-4%	x	40%	7%	x	-2%	x	-3%
Cc1ccc(C(=O)N/N=C\C2CC=CCC2)cc1[N+](=O)[O-] (stereo not given)	-4%	x	x	x	x	2%	-11%	-10%
Cc1ccc(CN2CCC(CNc3ncnc4onc(-c5ccc(F)cc5)c34)CC2)cc1	x	2%	-29%[46.1 µM]	x	-0.8%	x	x	0%
COCC(=O)N(CCc1ccccc1)Cc1cc2cc(C)ccc2nc1Cl	-9%	x	x	x	x	20%	-20%	-15%
CCOC(=O)c1cncc(O)c1	-1%	x	x	x	x	-4%	1%	-7%
CCCCCCc1c(C)c2c(cc(C)c3c(C)c(C)oc32)oc1=O	x	-1%	6%[46.1 µM]	14%[46.1 µM]	0.2%	x	x	0%

Following part
molecule	SARS PLP yeast	Cruzain inh noDet	Lassa entry inh	Marburg entry inh	Cruzain Triton	RE007 growth inh	NS1 inh	2A StopGo
C=CCNC(=O)c1onc(CSc2ccc(Cl)cc2)c1C(=O)NCC=C	-7%	x	x	x	x	u	-8%	-25%
Cn1c(=O)c2c(ncn2CC(=O)Nc2nc(-c3ccc(F)c(F)c3)cs2)n(C)c1=O	4%	x	x	x	x	9%	-9%	u
CS(=O)(=O)N(CC(=O)N1CCOCC1)c1ccccc1Br	1%	x	x	x	x	-7%	-3%	0%
Cc1cc(=O)[nH]c2ccccc12	4%	-2%	5%	u	4.4%	24%	1%	8%
COc1ccc(Nc2nc3ccc(Cl)cc3nc2-n2nc(C)cc2C)cc1	x	-5%	23%[46.1 µM]	x	1.4%	x	x	0%
NC(=O)C1CCN(C(=O)c2ccccc2SCC(=O)NCC2CCCCC2)CC1	x	x	4%	15%	x	0%	12%	u
NC(=O)c1cccc(CS(=O)(=O)c2ccc(Cl)cc2)c1	2%	x	x	x	x	-9%	2%	4%
CCOc1c(Cl)cc(CNCc2ccncc2)cc1OC	0%	x	-13%[46.1 µM]	-3%[46.1 µM]	x	10%	x	-19%
Cc1cc(OCC(=O)Nc2cnn(CCCC(=O)O)c2)ccc1Cl	2%	-8%	16%&15%[46.1 µM]	u	-1.3%	-11%	-1%	4%&-10%
